# Compound activity (PubChem)
# Cruzain noTriton – inhibitors of Trypanosoma cruzi cruzain without detergent. P25779. purified cruzain, Z-FR-AMC fluorescence, no detergent. Potency, µM, for the others: max response, negative = inhibition, most hits filed as inhibitors. 200,000 compounds, 2.3% hits. AID 1476;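 also: plate controls were enzyme without inhibitor for no effect and buffer without enzyme for full effect; nearly all actives have a fitted effect of over 40% in size; top concentration of the series not given in the record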
# Target sequence (P25779 123-467 limits assumed): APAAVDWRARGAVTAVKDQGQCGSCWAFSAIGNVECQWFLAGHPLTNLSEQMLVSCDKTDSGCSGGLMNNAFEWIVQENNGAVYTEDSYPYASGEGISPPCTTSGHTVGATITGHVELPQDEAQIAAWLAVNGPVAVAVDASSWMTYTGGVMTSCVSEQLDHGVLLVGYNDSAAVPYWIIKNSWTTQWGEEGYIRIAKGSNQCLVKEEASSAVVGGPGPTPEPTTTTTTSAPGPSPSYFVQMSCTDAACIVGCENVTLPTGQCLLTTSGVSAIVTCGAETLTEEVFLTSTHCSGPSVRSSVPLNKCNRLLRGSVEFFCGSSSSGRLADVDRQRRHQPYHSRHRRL
#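 Purified cruzain at 1.5 nM, pre-incubated 15 min with compound at room temperature in 100 mM sodium acetate pH 5.5, 5 mM DTT, 0.00005% Triton X-100. Reaction started with 2 uM Z-FR-AMC; AMC fluorescence increase over 60 s gives rate.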
# Cruzain inh Det – cruzain (T. cruzi) inhibition with detergent | purified cruzain, Z-FR-AMC fluorescence, 0.01% Triton | Potency, µM, inactives show max response, negative = inhibition, most hits filed as inhibitors | 200,000 compounds, 0.43% hits | AID 1478;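 also: plate controls were neutral wells for no effect and buffer without enzyme for full effect; nearly all actives have a fitted effect of over 40% in size; top concentration of the series not given in the record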
#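 Detergent-containing arm of a paired screen for aggregation-based inhibition: 0.01% Triton X-100 present. Cruzain at 1.5 nM cleaved 2 uM Z-FR-AMC at pH 5.5 with 5 mM DTT; AMC fluorescence gain over 60 s measured activity.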
# NS1 function inh – blocks influenza NS1 protein function | S. cerevisiae slowed by influenza A NS1, growth recovery by OD600 | Potency, µM (doses to about 46.1 µM), for the others: at the top dose activity, positive = more growth | 270,000 compounds, 0.4% hits | AID 2326; active means well fitted rising curve with a large enough effect; inconclusive means small, poorly fitted or top-dose-only effect; inactive means no such curve, though single readings can be large or run the other way; also: nearly all actives have a fitted effect of over 50% in size
#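 Read-out: OD600 growth recovery of NS1-expressing budding yeast. Cells grown overnight at 30C in -URA glucose medium, washed, resuspended and diluted 1:100 in 2% galactose assay medium, pH 6.0. Same strain lacking NS1 served as positive control.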
# SARS PLP yeast – SARS-CoV PLP inhibition in yeast; Potency, µM (titrated, usually from 32.9 µM), without a hit: at the highest dose activity, positive = growth rescue; S. cerevisiae expressing SARS-CoV PLpro, growth rescue; control for the full effect not named in the record; 330,000 compounds, 0.19% hits; active means well fitted rising curve with a large enough effect; inconclusive means small, poorly fitted or top-dose-only effect; inactive means no such curve, though single readings can be large or run the other way; also: 0% is about no effect; nearly all actives have a fitted effect of over 55% in size; growth read by luminescence after 48 h
# RE007 growth inh – less growth of the S. pombe RE007 Vpr strain; AID 651644; 360,000 compounds, 0.21% hits; S. pombe RE007 Vpr strain, BacTiter-Glo ATP luminescence, 24 h; control for the full effect not named in the record; Potency, µM (series often up to 92.2 µM), for inactives: top-dose activity change, negative = less growth; active = well fitted falling curve with a large enough effect; inconclusive = small, poorly fitted or top-dose-only effect; inactive = no such curve, though single readings can be large or run the other way;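 also: % is scaled to controls: 0 for no effect and ±100 for the full control effect; nearly all actives have a fitted effect of over 50% in size; the assay follows cell death caused by Vpr and the record does not say whether a fall means rescue or toxicity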
#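 Fission yeast RE007 carrying one integrated HIV-1 vpr copy, seeded at OD 0.01 in PMG+AL medium with 23 nL pinned compound. Grown 24 h at 30 degrees; viability read by BacTiter-Glo luminescence after 5 min.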
# LASV entry inh – Lassa virus entry inhibition; Lassa virus pseudotype entry inhibition, cell reporter; control for the full effect not named in the record; Potency, µM (doses to about 37.9 µM), inactives show at the top dose activity change, negative = inhibition, most hits filed as inhibitors; 300,000 compounds, 1.2% hits; active means well fitted inhibition curve with a large enough effect; inconclusive means small, poorly fitted or top-dose-only effect, or effect the other way; inactive means flat fitted curve, though single readings scatter; tested in HEK293 cells; also: % is scaled to controls: 0 for no effect and ±100 for the full control effect; nearly all actives have a fitted effect of over 50% in size; luciferase read-out
# StopGo reporter – lowers the luciferase signal of an FMDV 2A StopGo reporter; human cells with a luciferase reporter of 2A StopGo recoding; control for the full effect not named in the record; Potency, µM (titrated, usually from 57.9 µM), for inactives: top-dose signal change, negative = less light; 410,000 compounds, 1.2% hits; AID 1159524; active = well fitted falling curve with a large enough effect; inconclusive = small, poorly fitted or top-dose-only effect; inactive = no such curve, though single readings can be large or run the other way; tested in HEK293T cells; also: % is scaled to controls: 0 for no effect and ±100 for the full control effect; nearly all actives have a fitted effect of over 45% in size; luciferase light after 4 h
# Marburg entry inh – Marburg virus entry inhibition; Marburg virus pseudotyped entry inhibition, cell reporter; control for the full effect not named in the record; about a third of the inactives were read at about 46 µM; Potency, µM (doses to about 37.8 µM), without a hit: at the highest dose activity change, negative = inhibition, most hits filed as inhibitors; 300,000 compounds, 1.8% hits; AID 540276; active = well fitted inhibition curve with a large enough effect; inconclusive = small, poorly fitted or top-dose-only effect, or effect the other way; inactive = flat fitted curve, though single readings scatter; tested in HEK293 cells; about a fifth of its hits are not listed in these tables; also: % is scaled to controls: 0 for no effect and ±100 for the full control effect; luciferase read-out
# Numbers without * were called inactive; ? = inconclusive; / = not tested or not shown; & = joins results of further samples; [ ] = another dose, or the depositor's remark. Unless noted, calls follow the shape of the dose curve; as a rule, active = well fitted curve in the direction sought with a large enough effect; inconclusive = small, poorly fitted or top-dose-only effect, or another doubt; inactive = no such curve, though single readings can be large; an effect the other way counts as inactive or inconclusive. Potency is read from the fitted curve at half-maximal effect.
SMILES,Marburg entry inh,NS1 function inh,Cruzain noTriton,SARS PLP yeast,StopGo reporter,LASV entry inh,Cruzain inh Det,RE007 growth inh
O=S(=O)(c1ccccc1)c1nc(-c2ccccc2F)oc1N1CCOCC1,-13%[46.1 µM],/,0%,/,15%,25%[46.1 µM],-3.0%,/
O=C(NCc1ccccc1Cl)C1CCCN(C(=O)c2cnn(-c3ccccc3)c2-n2cccc2)C1 (configuration not stated),-14%[46.1 µM],/,1%,/,-16%,-21%[46.1 µM],-6.8%,/
NC(=O)C1(NC(=O)[C@@H]2CC3(CC(c4cccc(NC(=O)[C@@H]5CCC(=O)N5)c4)=NO3)CN2C(=O)Cc2ccc(Cl)cc2)CC1 (some centres not stated),2%,-4%,?,6%,58%[activator],/,3.2%,8%
C/[N+]([O-])=C/c1c(OCc2ccccc2)ccc2ccccc12,/,-9%,/,1%,16%,/,/,1%
O=C(CN1CCN(c2ccccn2)CC1)NCc1cccs1,26%,-12%,0%,9%,3%,8%,3.2%,-5%
Cc1cccn2c(=O)c(C=Nc3c(C)n(C)n(-c4ccccc4)c3=O)c(N3CCCC3)nc12,6%,-10%,-9%,5%,/,/,3.0%,/
COc1ccccc1CCN1C(=S)NC(C)(C)CC1(C)O (configuration not stated),-5%,-36%,-1%,9%,-13%,6%,7.5%,4%
CC1(C)CC(=O)C2=C(C1)NC1=C(C(=O)c3ccccc31)C2c1ccc(O)cc1 (configuration not stated),?,-4%,-2%,11%,?,-23%,-12%,1%
O=C1NC(C(=O)O)=CC(c2ccc([N+](=O)[O-])cc2)N1 (configuration not stated),/,6%,/,1%,-15%,/,/,2%
CCn1nc(C(=O)N2CCc3ccccc3C2)c2ccccc2c1=O,14%,-18%,-4%,-3%,-18%,1%,-5.5%,3%
Cc1ccccc1N(CC(=O)NC1CCCCC1)C(=O)c1csnn1,-13%[46.1 µM],-4%,/,?,2%,-12%[46.1 µM],/,2%
Cc1cccc(N2CCN(S(=O)(=O)c3cc(Br)cc4c3N(C(=O)C3CC3)CC4)CC2C)c1 (configuration not stated),-5%[46.1 µM],/,4%,/,2%,1%[46.1 µM],1.4%,/
COc1cc(OC)c(C2Oc3nc(SC)nnc3-c3ccccc3N2C(C)=O)cc1OC (configuration not stated),5%,-3%,-8%,5%,12%,/,-7.5%,-2%
Cc1cc(Cl)ccc1OCC(=O)NNC(=O)c1cccnc1,0%[46.1 µM],-5%,/,25%,0%,19%[46.1 µM],/,14%
CCOC(=O)c1cc2c(cn1)[nH]c1ccccc12,?,-33%,5%,-1%,24%&40%&43%,-1%,-0.9%,-4%[18.4 µM]
O=C(Nc1ccc(Cl)cc1)NC1CCCCC1Cc1ccco1 (configuration not stated),?,-128%,-8%,-28%,-16%,?,-2.8%,6%
CCC(C)(C)n1nnnc1CN1CCC(c2nc3ccc(C)cc3[nH]2)CC1,4%,-9%,11%,-8%,?,?,0.2%,-5%
Cn1nc(C(=O)N2CCN(c3ccc(Cl)cc3)CC2)c2c1-c1ccccc1S(=O)(=O)C2,-8%&-8%[46.1 µM],1%,-1%,-4%,?,?,-2.0%,1%
Cc1cccc(C(=O)NNC(=O)CN2C(=O)c3ccccc3C2=O)c1,12%[46.1 µM],3%,9%,19%,8%,6%,-2.7%,10%
CCOC(=O)c1c(C)n(CC(O)c2ccccc2)c2ccc(O)cc12 (configuration not stated),?,-16%,-2%,3%,?,?,-6.1%,7%
CCn1ncc(C2=NOC(C(=O)N3CCC(C(N)=O)CC3)C2)c1C (configuration not stated),17%,5%,3%,4%,7%,6%,0.5%,15%
CCOC(=O)Cc1cc(=O)[nH]c(Nc2nc3ccccc3o2)n1,?,16%,9%,0%,/,2%,1.7%,2%
COC(=O)[C@@H](Cc1c[nH]c2ccccc12)NC(=O)CCC(=O)c1ccc(F)cc1,/,-6%,/,-1%,-13%,/,/,23%
Cc1ccc(C(=O)OCC(=O)Nc2ccc3c(c2)OCO3)o1,?,1%,10%,3%,23%,18%,0.2%,14%
O=C(NCCCNC(=O)c1cncc(O)c1)c1cncc(O)c1,-10%[46.1 µM],/,/,-3%,23%,7%,/,12%
CC(C)c1nc(SCC(=O)Nc2cccc(C(F)(F)F)c2)c2c(=O)n(C)c(=O)n(C)c2n1,3%,-47%,-28%,8%,?,/,-8.8%,-4%
C/C(=N\NC(=O)CC#N)c1cc2ccccc2oc1=O,23%,?,-3%,3%,0%,2%,-2.9%,-1%
Cc1ccsc1C1CC(=O)Nc2ccccc2S1 (configuration not stated),4%[46.1 µM],?,/,1%,-18%,6%[46.1 µM],/,1%
O=C(C1CCC(CNS(=O)(=O)c2cccc3nsnc23)CC1)N1CC=C(c2ccccc2)CC1 (configuration not stated),/,?,?,10%,?,/,-2.9%,-12%
OCCCN1c2ccccc2Nc2nnc(-c3ccccc3)cc21,?,-53%,5%,-4%,11%,?,-1.2%,12%
COc1ccc(OC)c(/C(C)=N/Nc2ccc(C(=O)O)cc2)c1,20%[46.1 µM],-8%,/,-2%,-19%,30%[46.1 µM],/,-4%
O=C(COc1cc(Cl)c(Cl)cc1Cl)Nc1ccncc1,?,-34%,-20%,-13%,4%,9%,2.5%,-15%
CCOc1ccc(NC(=O)Cn2cc(C(=O)c3ccc(CC)cc3)c(=O)c3cc(OC)c(OC)cc32)cc1,-2%[46.1 µM],/,7%,/,-23%,15%[46.1 µM],-0.6%,/
CN(C)c1ccc(C(=O)OCC(=O)NCCNC(=O)COC(=O)c2ccc(N(C)C)cc2)cc1,?,-3%,/,?,-11%,12%,/,16%
O=C(Nc1ccc(Cl)cc1)Nc1nnc(-c2ccncc2)s1,?,-5%,-2%,11%,?,4µM*,-3.8%,4%
CSc1ncc(Cl)c(C(=O)Nc2ccccc2Cl)n1,16%,0%,?,2%,3%,7%,0.5%,-23%
CCCn1c(/N=C/c2cc(OC)ccc2O)nc2ccccc21,5%,-4%,-19%,0%,34%[activator],22%,-5.5%,4%
COc1ccc(NC(=O)CN2CCN(C(=O)c3ccco3)CC2)c(OC)c1,11%,-8%,-1%,-1%,?,-14%,1.4%,10%
CC(C)c1ccccc1NC(=O)c1ccco1,-5%,3%,-1%,2%,23%,7%,-7.0%,2%
Cc1cc(C)n(-c2ccc(C(=O)Nc3ccc(C)c(S(=O)(=O)N(C)C)c3)cc2)n1,?,10%,?,-3%,16µM*,?,-5.4%,3%
O=C(Cn1cc(SCc2ccc(F)cc2)c2ccccc21)N1CCCCC1,/,/,0%,/,26%,-2%[46.1 µM],-8.1%,/
Cc1cccc(NC(=O)C2CCN(C(=O)[C@@H]3Cc4ccccc4CN3)CC2)c1,/,6%,/,?,22%,/,/,-7%
CCn1c2ccc(F)cc2c2nc3ccccc3nc21,-20%[46.1 µM],-2%,/,1%,-9%,-4%[46.1 µM],/,-16%
O=C(N/N=C/c1ccco1)Nc1ccccc1,?,-1%,10%,0%,52%[activator],?,-3.3%,16%
COc1ccc(OC)c(/C=N/N(C)c2ccccc2)c1,2%,-8%,6%,-14%,43%[activator],-4%,-8.7%,-26%
CCOC(=O)N1CCN(C(=O)Cc2ccc(-n3c(=S)[nH]c4ccccc4c3=O)cc2)CC1,-16%,0%,-5%,7%,-18%,-14%,-1.5%,-2%
O=C(O)C=C(Br)Br,/,1%,/,3%,-14%,/,/,2%
CN(C)/C=C(\C#N)C(=O)Nc1ccccc1,?,/,/,-2%,27%,4%[46.1 µM],/,10%
COc1cc(C(=O)NCC(c2cccs2)N2CCOCC2)cc(OC)c1OC (configuration not stated),3%,/,/,-8%,-2%,1%,/,7%
CSc1ccc(S(=O)(=O)Nc2c(C)cccc2C)cc1,-28%,-12%,-4%,-1%,/,10%,-4.5%,2%
Cc1cccc(NC(=S)Nc2ccc(Cl)c(Cl)c2)c1,?,-65%,/,-2%,4%,4%[46.1 µM],/,2%
Cc1cc(=O)[nH]c(Cc2ccc(OC(C)C)cc2)n1,-1%,-3%,5%,1%,/,-2%,0.9%,7%
CCCCc1nnc(NC(=O)CN2C(=O)c3ccccc3C2=O)s1,/,3%,/,0%,3%,/,/,-7%
CC1CCCN(Cc2c(C(=O)N3CCc4ccccc4C3)nc3ccc(Cl)cn23)C1 (configuration not stated),/,5%,/,-1%,7%,/,/,3%
O=C(CNC(=O)c1ccccc1F)NC1=NCCS1,/,8%,/,5%,47%[activator],/,/,4%
O=C(Cn1ccn(-c2ccc(F)c(F)c2)c(=O)c1=O)NCCc1ccccc1,/,1%,13%,-1%,-1%&0%,2%[46.1 µM],-1.1%,7%
Cc1onc(-c2c(Cl)cccc2Cl)c1C(=O)N1CCN(c2ccccc2F)CC1,?,-14%,/,20%,?,?,/,-24%
Cc1cc(C)c(S(=O)(=O)c2ccccc2C)c(OCCO)n1,2%[46.1 µM],/,/,1%,21%,1%[46.1 µM],/,-1%
C[C@@H](/C=C\c1cccc(Oc2ccc(F)cc2)c1)N(O)C(N)=O,?,/,?,/,-7%,/,-10%,/
Cc1ccc(CNC(=O)c2ccc3c(c2)N(Cc2cccc(C)c2)C(=O)CS3)cc1,-24%[46.1 µM],/,9%,/,0%,?,-5.3%,/
Cc1cc(C)nc(N(C#N)CCOc2ccc(Cl)cc2)n1,?,-26%,-1%,-43%,7%,?,-6.7%,-10%
